# Screens from PubChem BioAssay.
# Choline anaer gr: choline-fed anaerobic bacterial growth inhibition. Gram-negative bacterium anaerobic choline minimal medium, absorbance growth; stronger effect = lower value; many inactives read as strong as hits in the columns shown. calls only. 55,000 tested, 0.2% active. AID 1963822;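 active = growth z-score on choline under -2 at 7 or 20 h with little or no fall on glycerol, limits in tiers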;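 also: stock transfer was 300 nL into about 50 µL; the organism is E. coli; final concentration not given here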
# Choline anaer gr early: second read-out of Choline anaer gr, no call of its own (marks repeat the call); z-score; measured here: choline growth z-score, timepoint 1;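 score of optical density at 7 h as mean of two plates; lower means less growth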
# * marks the source's active call; other numbers are inactive results; i = inactive; + = active, no number; & = joins results of further samples. This is a subset (hit frequency here may not be typical).
SMILES,Choline anaer gr,Choline anaer gr early
Cc1noc(-c2ccc(-c3noc(-c4cccc(Cl)c4)n3)cc2)n1,i,-0.64
CC(C)(C)c1ccc(S(=O)(=O)NCc2nc3cccnc3n2Cc2ccccc2)cc1,i,0.74
CCCCSc1cc2c(cc1NC(=O)C(C)C)n(C)c(=O)n2C,i,-1.08
Cc1ccc(C(=O)NCc2nc(-c3ccc(-c4nc(C)no4)cc3)no2)cc1,i,0.98
CCCc1nn2c(=O)cc(CSc3nc(-c4ccc(C)cc4)nc4cc(=O)[nH]n34)nc2s1,i,0.1
CC(=O)N1CCc2c(sc(NC(=O)c3ccc4c(c3)OCCO4)c2-c2nc3ccccc3s2)C1,i,-1.57
COc1ccc(-c2cc(=O)c3ccc(OC)cc3o2)cc1,i,1.21
C=CCNC(=O)C1CCCN(C(=O)c2ccc(NS(=O)(=O)c3ccc(F)cc3)cc2)C1 (stereo unspecified),i,-0.18
CCNC(=O)C1OC(n2cnc3c(N)nc(NCCc4ccc(CCC(=O)O)cc4)nc32)C(O)C1O (stereo unspecified),i,0.05
Cc1ccc(-c2nnc3ccccc3c2C(=O)NCC(C)C)cc1,i,0.8
CCc1c(C)nc2ncnn2c1Sc1ccccc1NC(=O)Nc1cc(C)cc(C)c1,i,0.06
Cc1cc(C)n2nc(N(Cc3ccccc3C)S(=O)(=O)c3ccc(Cl)cc3)nc2n1,i,0.8
CC1=C(c2ccccc2)S(=O)(=O)N=C1N1CCCN(C(=O)C(C)(C)C)CC1,i,0.93
CCOc1ccc(N2NC(=O)C(C)(C)C2=O)cc1,i,-1.49
CCOC(=O)C1CCN(C(=O)c2cc(NC(=O)c3ccc(Cl)cc3)cnc2N2CCNCC2)CC1,i,-2.03
Cc1ccc(Cn2cc(C(=O)Nc3ccc(C)cc3C)ccc2=O)cc1,i,0.27
Cc1nc2ccc(NC(=O)Nc3ccnc4cccnc34)cc2o1,i,-0.05
CCN(CC)C(=O)c1ccc(-c2nc3cc(NS(=O)(=O)c4cc(C)ccc4C)ccc3n2C)cc1,i,-0.21
CN1CCN2c3ccccc3Cc3ccccc3C2C1 (stereo unspecified),i,-1.64&-0.16&0&-1.62
O=C(Nc1ccc(N2CCC(c3ccccc3)C2)c(C(=O)O)c1)c1cccc(Cl)c1 (stereo unspecified),i,0.36

# Laid out differently: entries from further up
CCOC(=O)C1CCN(C(=O)c2cc(NC(=O)c3ccc(Cl)cc3)cnc2N2CCNCC2)CC1
- Choline anaer gr: i
- Choline anaer gr early: -2.03

Cc1ccc(Cn2cc(C(=O)Nc3ccc(C)cc3C)ccc2=O)cc1
- Choline anaer gr: i
- Choline anaer gr early: 0.27

# Additional structures follow:
SMILES,Choline anaer gr,Choline anaer gr early
Cc1ccc2[nH]c(=O)c(-c3noc(CCCC(=O)NC4CCCC4)n3)cc2c1,i,-0.03
CCOC(=O)CSc1nnc2c3ccccc3nc(-c3ccccc3)n12,i,0.87
CCC1CCCCN1C(=O)c1cc(-c2ccc(F)cc2)n[nH]1 (stereo unspecified),i,0.19
COc1ccc(C2C=C(c3ccccc3)Nc3nc(N4C(=O)CCC4=O)nn32)cc1 (stereo unspecified),i,-0.19
COc1ccc2nc(-n3nc(C)c4c3NC(=O)CC4c3ccsc3)sc2c1 (stereo unspecified),+,-0.51*
Cc1ccc(-c2cn3cccnc3n2)cc1NC(=O)CC1CCCCC1,i,-0.91
C[N+](C)(C)CCOP(=O)(O)OP(=O)([O-])OC[C@H]1O[C@@H](n2ccc(N)nc2=O)C(O)[C@H]1O (stereo partly specified),i,0.96
C[C@@H]1C(=O)NC2=Nc3cccc(Cl)c3CN21,i,0.24
c1ccc(Cn2cnnc2C2CCCN(Cc3ccoc3)C2)cc1 (stereo unspecified),i,-0.07
COc1ccc(CN2CCCC2c2cc(C(C)C)on2)cc1Br (stereo unspecified),i,1.42
CCN(CC)S(=O)(=O)c1cc(-c2ccc(=O)n(C(C)C(=O)Nc3cccc(C)c3C)n2)ccc1C (stereo unspecified),i,0.35
CCc1c(C)nc2nc(Cc3cccc(F)c3)[nH]n2c1=O,i,-2.17
Cc1ccc(-c2nc(CSCC(=O)NC3CCCC3)no2)cc1,i,-0.33
C[n+]1ccc(/C=C/c2c[nH]c3ccccc23)cc1,i,-0.87
Clc1ccc(-c2noc3ncnc(N4CCC(Cc5ccccc5)CC4)c23)cc1,i,1.95
Cc1cc(Cl)ccc1NS(=O)(=O)c1ccc2onc(C(=O)N3CCCC3)c2c1,i,-0.24
CCc1onc(C)c1C1CCCN1S(=O)(=O)c1ccc(Br)s1 (stereo unspecified),i,-0.01
CCc1c(C)[nH]c2c1C(=O)C(CN1CCOCC1)CC2 (stereo unspecified),i,0.27&-0.47
CCSc1nsc(NC(=O)c2ccccc2Cl)n1,i,-0.5
CCNC(=O)CCn1cnc2oc(C)c(C)c2c1=O,i,-0.71
NC(N)=Nc1nc(CSCCC(N)=NS(N)(=O)=O)cs1,i,0.18
CCC(C)NC(=O)CSc1nc2ncccc2n2cccc12 (stereo unspecified),i,0.53
CCN1C(=O)c2c(C(=O)N3CCOCC3)ncn2CC1(C)C(=O)NCCCOC(C)C (stereo unspecified),i,-0.26
O=C1CC2(CCCC2)CC(=O)N1CCCCN1CCN(c2ncccn2)CC1,i,0.61&-0.25&-0.46
CCOc1ccc(Br)c(CC2C(=O)Nc3c(C)cc(C)cc32)c1 (stereo unspecified),i,0.75
CCOc1ccc2nc(Nc3ncc4c(n3)CCCC4=O)nc(C)c2c1,i,0.08
CN1C(=O)c2cc(C(=O)N3CCCC3)nn2CC1(C)C(=O)NC1CCCCC1 (stereo unspecified),i,1.08
CCCn1c(CCc2ccc(NS(=O)(=O)CC)cc2)nc2ccccc21,i,-0.4
O=S(=O)(c1ccc(F)cc1)c1nc(-c2ccc(Cl)cc2)oc1NCC1CCCO1 (stereo unspecified),i,1.06
C=CCN1CCN(c2nn3c(NC4CCCC4)c(-c4cccc(C)c4)nc3s2)CC1,i,1.29

# An excerpt from above in order of the Choline anaer gr early value, highest first.
Compound | Choline anaer gr early
Cc1ccc(C(=O)NCc2nc(-c3ccc(-c4nc(C)no4)cc3)no2)cc1 | 0.98
C[N+](C)(C)CCOP(=O)(O)OP(=O)([O-])OC[C@H]1O[C@@H](n2ccc(N)nc2=O)C(O)[C@H]1O (stereo partly specified) | 0.96
Cc1cc(C)n2nc(N(Cc3ccccc3C)S(=O)(=O)c3ccc(Cl)cc3)nc2n1 | 0.8
O=C(Nc1ccc(N2CCC(c3ccccc3)C2)c(C(=O)O)c1)c1cccc(Cl)c1 (stereo unspecified) | 0.36
C=CCNC(=O)C1CCCN(C(=O)c2ccc(NS(=O)(=O)c3ccc(F)cc3)cc2)C1 (stereo unspecified) | -0.18

# Quoted at random: 5 entries already listed
SMILES,Choline anaer gr,Choline anaer gr early
CN1C(=O)c2cc(C(=O)N3CCCC3)nn2CC1(C)C(=O)NC1CCCCC1 (stereo unspecified),i,1.08
CCOc1ccc(Br)c(CC2C(=O)Nc3c(C)cc(C)cc32)c1 (stereo unspecified),i,0.75
CCC(C)NC(=O)CSc1nc2ncccc2n2cccc12 (stereo unspecified),i,0.53
CCCn1c(CCc2ccc(NS(=O)(=O)CC)cc2)nc2ccccc21,i,-0.4
C=CCN1CCN(c2nn3c(NC4CCCC4)c(-c4cccc(C)c4)nc3s2)CC1,i,1.29

# (list continues)
SMILES,Choline anaer gr,Choline anaer gr early
O=C(Cc1ccccc1)Nc1noc2ccccc12,i,-1.02
COc1ccc(N2C(=O)CCC(C(=O)N3CCN(c4ccccc4)CC3)C2c2ccc(F)cc2)cc1 (stereo unspecified),i,-0.18
CCc1onc(C)c1C1CCCN1Cc1ccc(OC(C)C)cc1 (stereo unspecified),i,-0.91
CN1CCCc2cc(C(=O)NC3CCCC3)sc21,i,-1.4
CC1=C(c2ccc(F)cc2)S(=O)(=O)N=C1N1CCC(NC(=O)NC(C)C)CC1,i,-1.56
Cc1ccc(C2Nc3ccc(F)cc3[C@H]3OCCC[C@@H]23)cc1 (stereo partly specified),i,-0.64
CCN1CCN(c2nc3ncn(CC(=O)NCc4ccc5c(c4)OCO5)c(=O)c3s2)CC1,i,-0.18
COc1ccc(CNc2nc3nc(C)cc(C)n3n2)cc1,i,-0.66
O=C(O)CC(O)CC(O)C=Cc1c(C2CC2)nc2ccccc2c1-c1ccc(F)cc1 (stereo unspecified),i,0.47
Cc1nc(-c2ccc3c(c2)CCN3C(=O)Cc2ccc(Cl)cc2)no1,i,1.48
CC1=C(c2ccc(F)cc2)S(=O)(=O)N=C1N1CCCN(C(=O)C(C)(C)C)CC1,i,1.35
Cc1ccc(NC(=O)c2nc3ccccc3n(C)c2=O)cc1,i,0.34
CC1(C(=O)NCc2ccccc2)CCCN(C(=O)NC2COc3ccccc3C2)C1 (stereo unspecified),i,-0.43
CC1(C)Oc2ccc(C#N)cc2[C@@H](OC2=CC(=O)CC2)[C@@H]1O,i,0.01
COc1ccc(-c2c(C(=O)Nc3cccc(Cl)c3)nn3c(C)cc(=O)[nH]c23)cc1,i,-0.84
O=C(CCN1C(=O)c2ccccc2C1=O)NCc1noc(-c2ccc(F)cc2)n1,i,-1.28
O=C(c1ccccc1Cl)N1CCN(c2nc3cc(Br)ccc3n3cccc23)CC1,i,-0.44
O=S(=O)(c1ccc(F)cc1)N1CCCC1c1ccc(Cl)cc1 (stereo unspecified),i,0.26
Cc1cccc(C)c1Nc1ncnc2ccc(Br)cc12,i,-2.28
O=C(O)c1cccc(Nc2c(-c3cccc(Br)c3)nc3cnccn23)c1,i,0.04
O=C(c1nnc(-c2cc(S(=O)(=O)NCc3ccccn3)c[nH]2)o1)N1CCCC1,i,-0.81
CCC1Cn2c(C(=O)NCCCN3CCOCC3)cc3cccc(c32)O1 (stereo unspecified),i,0.9
CN(C)c1ccc(NS(=O)(=O)c2ccc(Br)cc2)cc1C(=O)O,i,0.07
O=C1CCCc2c1cc(C(=O)NCc1cccc(Cl)c1)c(=O)n2-c1ccc(F)cc1,i,-0.26
CCN1CCN(Cc2c(NC(=O)c3cccs3)sc(C)c2C)CC1,i,0.13
CCOC(=O)c1nc(Nc2ccccc2F)c2ccccc2n1,i,0.43
CC(=O)[C@H]1[C@H](C#N)C[C@H]2[C@@H]3CC=C4C[C@@H](O)CC[C@]4(C)[C@H]3CC[C@@]21C,i,0.28
O=C(NCCc1nc2cccnc2n1Cc1ccccc1)Nc1ccccc1Cl,i,0.17
CCCC(O)c1nc2ccccc2n1CCOc1ccccc1C (stereo unspecified),i,1.09
COC(=O)c1c(-c2ccc(Cl)cc2)noc1NC1CC1,i,0.68
CC(=O)N(Cc1nn(C)c2c1CN(S(=O)(=O)c1ccc3c(c1)OCCO3)CC2)c1ccccc1,i,-0.4
O=C(NCCCN1CCCCC1)C1CCN(c2nn3c(=O)c4c(nc3s2)CCCC4)CC1,i,0.44
O=C(O)CCC/C=C\C[C@@H]1[C@@H](/C=C/[C@@H](O)Cc2ccccc2)[C@H](O)C[C@@H]1O,i,1.4
Cc1nn(C)c(C)c1S(=O)(=O)N1CCCC(c2nnc(C(=O)Nc3ccc(Cl)cc3)s2)C1 (stereo unspecified),i,-1.31
COc1ccc(-c2cc(N3CCN(C(=O)Nc4cccc(Cl)c4)CC3)ncn2)cc1,i,0.9
Cc1cc(N2CCCC2)nc(N2CCN(C(=O)c3ccc(Br)cc3)CC2)n1,i,1.31
COc1ccc(-c2nc(CN3CCN(S(=O)(=O)c4ccc(OC)cc4)CC3)c(C)o2)cc1,i,-0.8
CC(C)c1cc(C2CCCN2Cc2cccc(Cl)c2)no1 (stereo unspecified),i,0.97
Cc1nccn1Cc1noc(-c2ccco2)n1,i,0.34
CCSc1nc2ccc(NS(=O)(=O)c3ccc(F)cc3)cc2s1,i,-0.67
Cc1ccc(CNC(=O)C2(C)CCCN(C(=O)c3ccc(C)c(C)c3)C2)cc1 (stereo unspecified),i,-0.57
COc1cc2c(=O)n(Cc3ccc(C(=O)NC4CC4)cc3)c(=O)n(CC(=O)NC(C)C)c2cc1OC,i,0.56
CC(=O)Nc1ccc(N2CCn3c(nc4cc(Cl)ccc43)C2)cc1,i,0.36
O=C(Nc1cccc(Cl)c1)C1CCCN(c2nc3ccccc3nc2C(F)(F)F)C1 (stereo unspecified),i,1.03
CCCC(=O)Nc1ccc2nc(SCC(=O)N3CCOCC3)sc2c1,i,-2.13
CCn1c(=O)oc2ccc(C(=O)N3CCN(c4ccccn4)CC3)cc21,i,-0.03
O=S(=O)(Cc1ccc(Cl)cc1)c1ccc(N2CCOCC2)nn1,i,0.11
Cc1ccc(C2=NS(=O)(=O)N(C)C(C(=O)Nc3ccn(Cc4ccccc4C)n3)=C2)cc1,i,1.61
Cc1sc2ncnc(NCc3ccc4c(c3)OCO4)c2c1C,i,2.14
CCn1c(C)ccc(-c2noc(CCC(=O)Nc3ccccc3OC)n2)c1=O,i,-0.33
# New compounds follow
SMILES,Choline anaer gr,Choline anaer gr early
O=C(c1ccc(Cl)cc1)N1CCN(c2nc3ccccc3nc2C(F)(F)F)CC1,i,0.27
CC(C)NC(=O)N1CCCC(c2cccc(C(=O)N3CCC(N4CCCCC4)CC3)c2)C1 (stereo unspecified),i,-1.44
COc1cccc(CNC(=O)C2(C)CCCN(C(=O)c3cccc(N(C)C)c3)C2)c1 (stereo unspecified),i,-1.81
CCOC(=O)c1[nH]c(C)c(CN(C(=O)Nc2cc(C)ccc2OC)C2CCCCC2)c1C,i,0.27
O=C(Nc1ccc(Cn2cnc(-c3nc(-c4ccc(Cl)cc4)no3)c2)cc1)c1ccccc1Cl,i,1.63
O=C(c1ccccc1)c1cnc2ccc(F)cc2c1S(=O)(=O)c1ccccc1,i,0.52
O=C(NCCn1cnc2cc(C(=O)NC3CCCC3)ccc21)NCc1ccc(F)cc1,i,-0.53
Cc1ccc(S(=O)(=O)c2ncsc2SCC(=O)N2CCN(c3ccccc3)CC2)cc1,i,-0.35
c1ccc(-n2nnnc2Oc2cccc(CNCCCN3CCOCC3)c2)cc1,i,-0.56
CCOc1c(Nc2ccc(F)cc2F)c(=O)c1=O,i,-0.94
CN1CCN(c2ncncc2N2CCC(C(=O)NC3CCCC3)CC2)CC1,i,-1.86
Cc1ccc(C)c(CSc2nnc3c(=O)n(-c4ccc(C(C)C)cc4)ccn23)c1,i,0.17
